# High-throughput results as filed in PubChem BioAssay.
# RanGTP-Imp inh = inhibitors of RanGTP-importin-beta interaction, primary screen, biochemical, FRET, CFP-Ran, YFP-importin-beta, homogeneous; Ran GTPase (GTP-bound) - importin-beta complex; cell-free CFP-Ran/YFP-importin-beta FRET ratio; inhibition, % (test concentration not listed); actives 1.1% (n = 300,000);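 active = most replicates above 15%; inconclusive = exactly half above 15%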;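 also: 0% = DMSO wells and 100% = Ran loaded with GDP instead of GTP; wells of about 40 µL received 100 nL stock; the first replicate is given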
# HNF4A DNA FP = change in binding of human HNF4A to DNA, primary screen, biochemical, fluorescence polarization, FITC-DNA. Hepatocyte nuclear factor 4-alpha (Homo sapiens), P41235. 1 h. activity change, % at 10 µM. actives 0.3% (n = 360,000). AID 1224865, 2016; in the data active = activity change above about 30%, passing the limit was not always enough;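 also: controls were the assay level and a saturating level of protein; the project sought stronger binding though the title names inhibitors; some compounds called inactive have numbers as strong as hits; positive values seem to mean higher polarization but the record does not say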
# Target sequence (P41235 whole entry, looked up): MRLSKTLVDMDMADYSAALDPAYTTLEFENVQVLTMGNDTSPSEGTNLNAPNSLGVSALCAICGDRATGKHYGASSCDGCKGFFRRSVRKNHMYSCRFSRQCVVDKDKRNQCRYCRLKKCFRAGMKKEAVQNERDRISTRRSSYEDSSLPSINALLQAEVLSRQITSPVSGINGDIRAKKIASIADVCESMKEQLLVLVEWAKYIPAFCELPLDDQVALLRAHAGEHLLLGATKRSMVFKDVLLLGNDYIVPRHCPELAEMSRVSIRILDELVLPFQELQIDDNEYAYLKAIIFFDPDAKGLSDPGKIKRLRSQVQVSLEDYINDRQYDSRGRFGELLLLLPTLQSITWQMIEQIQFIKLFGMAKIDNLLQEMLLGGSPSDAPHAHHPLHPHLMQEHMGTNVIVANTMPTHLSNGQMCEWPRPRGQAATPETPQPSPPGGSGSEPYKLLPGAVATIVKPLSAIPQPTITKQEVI
# Vif TR-FRET = inhibitors of Vif binding to APOBEC3G peptide, primary screen, biochemical, TR-FRET, GST-Vif 1-94, biotin-A3G peptide, dose response retest (AID 1117319); inhibition, %, or IC50 in µM where a hit was titrated; actives 0.57% (n = 260,000); Virion infectivity factor (Human immunodeficiency virus type 1 group M subtype B (isolate …; TR-FRET GST-Vif / biotin-A3G peptide binding; higher % means a stronger effect; test concentration not given here; strong numbers were not always called active;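 active = above the screen mean plus three standard deviations and confirmed in dose response; inconclusive = results disagree or hit not tested in dose response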;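 also: Vif residues 1-94 fused to GST binding biotinylated APOBEC3G peptide 110-148; 0% = full assay without inhibitor and 100% = GST in place of GST-Vif; retest series ran down from 100 µM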
# Calb FLC = C. albicans growth inhibition with fluconazole, primary screen, CaCi-2 strain, Alamar Blue fluorescence; C. albicans CaCi-2 (fluconazole-resistant clinical isolate) + fluconazole, 48 h; growth inhibition, % (no concentration beside the values); actives 0.57% (n = 300,000);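 active = most replicates above 75%; inconclusive = exactly half above 75%; inactive = most below 75%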;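 also: all wells also contain fluconazole at 8 µg/ml as a sub-toxic cotreatment; 0% = median of DMSO wells and 100% = median of geldanamycin control wells; wells of about 8 µL received 7.5 nL stock; the first replicate is given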
# ALR H2O2 inh = inhibitors of human ALR sulfhydryl oxidase, primary screen, biochemical, H2O2 detection, HRP-luminol luminescence, single point; AID 485317, 2010; actives 3.8% (n = 290,000); inhibition, % (concentration not given with the values); purified ALR, DTT oxidation;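 active = mean and each replicate at 75% or more; inconclusive = only one of the two met; inactive = neither met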;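 also: stock transfer was 7.5 nL into about 7.5 µL; 0% = neutral wells and 100% = wells with inactivated enzyme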
# Target sequence (P55789 whole entry, looked up): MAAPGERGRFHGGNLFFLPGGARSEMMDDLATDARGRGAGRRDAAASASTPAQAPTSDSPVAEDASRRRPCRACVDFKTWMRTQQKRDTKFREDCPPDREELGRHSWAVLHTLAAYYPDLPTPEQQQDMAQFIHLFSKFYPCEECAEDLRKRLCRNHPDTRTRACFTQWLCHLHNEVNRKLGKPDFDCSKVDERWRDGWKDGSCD
# LANA-H2B inh = blockers of LANA interaction with H2A/H2B – biochemical, FP readout, HTS, primary screen | Protein LANA1 (Human herpesvirus 8 type P (isolate GK18)), Q9QR71 | cell-free LANA-H2A/H2B peptide, fluorescence polarization | inhibition, % (test concentration not listed) | actives 0.6% (n = 320,000); in the data active = inhibition mostly above about 10%, no sharp cut-off; inactive = mostly below about 6.7%;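 also: stock transfer was 7.5 nL into about 10 µL; 0% = median of vehicle wells and 100% = median of positive control wells; one replicate is shown; the record names a cut of 25% in any replicate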
# Beta2AR agonist = beta2AR agonists driving receptor internalization, primary screen, cell-based, FAP fluorogen, flow cytometry; Beta-2 adrenergic receptor (Homo sapiens), P07550; Am2.2-beta2AR cells; reference of the scale not given here; response, % (no concentration beside the values); actives 0.43% (n = 340,000); AID 504454, 2011;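 active = response above a set limit, near 3 SD of response in nonfluorescent compounds, cut at about 42% in these data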;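 also: stock transfer was 100 nL into about 11 µL; a reference agonist was the positive control; negative values mostly stem from fluorescent compounds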
# Target sequence (P07550 whole entry, looked up): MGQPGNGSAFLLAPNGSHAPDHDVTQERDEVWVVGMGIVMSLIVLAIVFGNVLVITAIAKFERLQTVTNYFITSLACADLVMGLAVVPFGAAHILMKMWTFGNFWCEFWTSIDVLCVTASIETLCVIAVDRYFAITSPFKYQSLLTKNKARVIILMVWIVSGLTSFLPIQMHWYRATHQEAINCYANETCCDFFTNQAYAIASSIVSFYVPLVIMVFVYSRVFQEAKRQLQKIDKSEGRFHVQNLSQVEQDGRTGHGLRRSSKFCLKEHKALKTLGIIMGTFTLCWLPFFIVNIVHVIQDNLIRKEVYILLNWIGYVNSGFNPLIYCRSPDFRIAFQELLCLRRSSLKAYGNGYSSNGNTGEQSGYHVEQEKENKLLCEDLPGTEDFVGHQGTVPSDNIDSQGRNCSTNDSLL
# The depositor's hits bear a star; i = inactive; ? = inconclusive; . = no result given; & = joins results of further samples. No enrichment for hits; any-hit rate near 6.3%.
# Fields – RanGTP-Imp inh, HNF4A DNA FP, Vif TR-FRET, Calb FLC, ALR H2O2 inh, LANA-H2B inh, Beta2AR agonist
CC(C)c1nnc(N2C(=O)c3oc4ccccc4c(=O)c3C2c2ccco2)s1 (centres undefined)
  12, -2.2, 6%&18%, 2, 2, 6.1, -3
CCOC(=O)c1c(/N=C/N(C)C)sc2c1CCC2
  -4.5, -4.5, 0%, 12, -11, -2.6, -5
COc1ccc(Nc2nc(N)nc(SCc3nnc(C)s3)n2)cc1
  -3.8, -2.2, 3%, 6, -2, 1.2, 2
COc1ccc([C@@H]2CC=C(C(=O)O)[C@H](c3ccc(Br)cc3)N2S(=O)(=O)c2ccc(C)cc2)cc1OC
  ., 5.0, 0%, ., 4, ., 6
Oc1c(Br)cc(C2N=C(c3ccccc3)NO2)cc1Br (centres undefined)
  -0.6, -4.8, 7%, 4, 19, 5.7, 9
Cc1cc2c(cc1S(=O)(=O)N1CCN(c3ccccc3)CC1)OCCN2C
  1.7, -2.1, ., 0, 50, -8.5, 16
O=C(c1ccccc1)c1cccs1
  -0.2, -3.1, 20%, 27, -4, 5.6, -2
NC(=O)c1ccc(NC(=O)c2ccccc2S(=O)(=O)c2ccccc2[N+](=O)[O-])cc1
  -1.8, 2.0, 3%, 2, -14, -0.8, 3
O=C1Nc2ccc(S(=O)(=O)N3CCCCCC3)c3cccc1c23
  0.8, -2.7, 2%, -11, -7, 3.3, 7
COCCN(C)Cc1nc(C(c2ccccc2)c2ccccc2)no1
  -2.6, 4.7, ., 0, -3, 2.4, 9
Cc1cc(=O)[nH]c(SCC(=O)NCCC2=CCCCC2)n1
  -1.3, 1.4, 1%, 16, -5, -0.1, -10
Cc1ccc(Cc2cnc(NC(=O)C3=NCCN3)s2)cc1
  -1.7, ., 5%, 5, ., 3.3, .
Cc1ccc(NC(=O)CSCC(=O)OCc2cc(=O)oc3cc(O)ccc23)c(C)c1
  5.5, -0.6, -1%, -1, -2, 2.0, 2
CNC(=S)NNC(=O)c1ccc2c(c1)OCO2
  -1.5, -1.0, ., -1, 50, 0.1, -2
Cc1cc(S(=O)(=O)n2cnc3cc([N+](=O)[O-])ccc32)ccc1Cl
  -0.9, -0.5, 16%, -2, -49, -1.1, -10
Cc1ccc(N(CCC#N)C(=O)COC(=O)c2cc(C)no2)cc1
  2.0, 0.3, -7%, -5, -3, -1.1, -10
Cc1cccc(N2CCN(C(=O)CCC(=O)N3CC(C)Oc4ccc(C)cc43)CC2C)c1 (centres undefined)
  -4.6, 3.0, ., -16, 29, 1.7, 9
CCOc1ccc(N2C(=O)CC(Cc3ccc(Br)cc3)C2=O)cc1 (centres undefined)
  -0.6, -5.0, 1%, ?, 0, 1.1, 6
Cc1cccc(C)c1OCC(=O)N1CC2(C)CC1CC(C)(C)C2 (centres undefined)
  -0.3, 0.7, 1%, 1, -3, 2.8, -4
Cc1ccc(C(=O)Cc2nc3ccccc3[nH]2)cc1
  0.0, 1.9, ., 16, 8, 4.8, 6
O=C(CCS(=O)(=O)c1ccccc1)N1CCN(c2ccccc2F)CC1
  2.4, 3.1, ., -2, -3, 4.0, 0
CC(=O)Nc1ccc(N=C(C2=C(O)c3ccccc3C2=O)c2ccccc2)cc1
  2.6, -2.2, -6%, 16, -1, -3.2, -2
CC(C)(C)N(NC(=O)OCc1ccccc1)C(=O)c1ccccc1
  -0.5, 1.9, ., 0, -16, 5.6, 0
O=C(CSc1n[nH]c(-c2ccccc2Cl)n1)NCc1cccc(C(=O)O)c1
  1.1, 4.2, ., -12, 1, 2.1, 5
CCOC(=O)CN1C(=O)CSc2ccc(S(=O)(=O)N3CCOCC3)cc21
  -0.7, 2.5, ., -5, -5, -3.4, 5
Cc1cc(NC(=O)CSc2cn(C)c3ccccc23)no1
  -2.3, 2.0, 6%, -5, -29, 3.8, -6
Cc1cc(NC(=O)c2ccc(-c3ccc(F)c(Cl)c3)o2)no1
  -0.3, -1.5, ., 9, -3, 4.5, 12
Cc1cc(C)nc(N(C#N)Cc2ccccc2C)n1
  5.4, 0.5, ., -32, ., -2.7, -7
COc1ccc(CCN2CC(C(=O)NCc3nc4ccccc4n3C)CCC2=O)cc1 (centres undefined)
  4.2, 2.1, ., 10, -4, 1.7, 1
Brc1ccccc1CN1CCC(N2CCCCC2)CC1
  -1.4, 0.9, 2%, 3, -15, 0.6, 6
CCC(C)NC(=O)c1cc2cc3ccc(OC)cc3nc2s1 (centres undefined)
  0.9, 1.5, 6%, 30, -3, 0.5, 16
CCC(CNC(=O)c1c(C)nn(-c2ccccc2)c1Cl)c1ccccc1 (centres undefined)
  2.7, -4.9, 1%, -21, 2, -7.0, -6
Cc1ccc(NC(=O)CSc2nnc(NC(=O)C3CC3)s2)cc1
  0.1, 2.0, ., 3, -11, 2.3, -6
COc1ccc2c(c1OC)CN(C)CCc1cc3c(cc1C(=O)C2)OCO3
  1.8, -3.4, 1%, ?, 10, 3.8, -2
NC(=O)Cc1ccc(Nc2nnc(-c3ccc(O)cc3)c3ccccc23)cc1
  0.0, 1.6, 5%, 40, 99*, 3.9, 1
C=C(C)Cn1c(N2CCCC2)nc2c1c(=O)n(C)c(=O)n2C
  2.1, 2.5, ., 0, 20, -26, 1
CC(=O)c1ccc(NC(=O)C(=O)c2cn(CC(=O)N3CCCCC3)c3ccccc23)cc1
  3.7, -0.7, 0%, 3, -1, 1.6, 1
COC(=O)C(C)n1cnc2c(nnn2-c2cccc(OC)c2)c1=O (centres undefined)
  -4.9, -1.4, 1%, 1, -16, 2.1, 4
CC(C)(C)NC(=O)NC(=O)COC(=O)c1ccc2c(c1)S(=O)(=O)N=C1CCCCCN12
  -2.6, 1.9, -2%, 5, 0, -6.3, 0
Cc1ccc(C)c(OCCC(=O)N2CCN(S(=O)(=O)c3ccc([N+](=O)[O-])cc3)CC2)c1
  ., 6.7, 7%, ., -13, 3.8, -4
CC(=O)Nc1ccc(CN2CCCN(C)CC2)cc1
  0.0, -0.6, ., 6, -6, 0.7, 0
Cc1ccccc1NC(=O)C(=O)NNC(=O)COc1ccc2ccccc2c1
  6.1, -2.7, ., 6, ., 18, 1
COc1ccc(CNC(=O)CCCn2nc(C)c([N+](=O)[O-])c2C)cc1OC
  -2.2, -3.2, 8%, 6, ., -2.2, -5
Cc1ccc(COC(=O)Cc2coc3cc(O)ccc23)cc1
  -3.0, 0.9, 0%, 1, 22, 2.0, 0
O=C(Cc1ccccc1)NN1CCCCC1
  4.4, 2.5, ., 5, -1, -0.2, -1
COc1ccc(NC(=O)CSc2nnc(Cn3cnc4ccccc43)o2)cc1
  2.3, 2.5, ?, -20, -11, 5.0, -6
CCOC(=O)c1ccc2c(c1)[nH]c(=S)n2CC
  -2.3, 0.7, ., 12, 83*, 8.6, 5
Cc1ccc(S(=O)(=O)N2CCN(CCc3ccccc3)CC2)c(C)c1
  -1.4, -2.7, -1%, 2, -2, 0.0, -13
CCOc1ccc(N2C(=O)c3cccnc3C2Nc2ccc(Cl)cc2)cc1 (centres undefined)
  2.1, 4.0, 27%, 3, -8, 8.0, -21
CCOC(=O)N1CCN(C(=O)CSCC(=O)Nc2nc(-c3ccc(C)cc3)cs2)CC1
  1.0, 0.0, 3%, 0, 99*, -1.4, 0
Cc1ccc(C(=O)NC(=S)Nc2cccc(-c3nc4ccccc4s3)c2)cc1
  -1.6, -0.1, 10%, 13, 0, -0.7, 4
Cn1c(=O)c2[nH]c(C3CC=CCC3)nc2n(C)c1=O (centres undefined)
  ., 1.1, -6%, ., ., ., 1
O=S(=O)(c1cccc(S(=O)(=O)N2CCOCC2)c1)N1CCCCC1
  1.3, -1.9, 3%, -2, -14, -3.5, 6
COc1c(NC=O)c2c(c([N+](=O)[O-])c1OC)C(=O)OC2
  ., 1.4, -5%, ., ., ., 1
Cc1nn2c3cc(N4CCOCC4)ccc3nc2c2ccccc12
  -2.0, ., ., -2, -17, 0.5, .
CCOc1ccccc1N(CC(=O)NCc1ccccc1)C(=O)CCC(=O)Nc1cc(C)ccn1
  ?, -5.9, 5%, -7, 3, 5.3, 12
CC(=O)N1CCN(c2ccc(NC(=O)c3ccc(C)c([N+](=O)[O-])c3)cc2)CC1
  ?, 4.5, 7%, -12, 10, 1.4, 8
COc1ccc(-c2ccc(SCC(=O)NC3CCCCC3)nn2)cc1OC
  8.1, 2.5, ., -11, ., -2.9, 10
Cc1ccc2cc(CCNS(=O)(=O)c3ccc(F)cc3)c(=O)[nH]c2c1C
  2.5, 5.9, -44%, -1, 8, -1.8, 43*
COc1cccc(Cn2cnc3c(NS(=O)(=O)c4cccc(Cl)c4Cl)c(C)c(C)cc32)c1
  3.4, 0.0, 6%, 10, 0, 1.1, 12

# Following part:
# Fields – RanGTP-Imp inh, HNF4A DNA FP, Vif TR-FRET, Calb FLC, ALR H2O2 inh, LANA-H2B inh, Beta2AR agonist
O=C(NCc1ccc2c(c1)OCO2)c1cc2ncc(Br)cn2n1
  ., -13, 34µM*, ., -9, -0.2, -1
C/C(=N\NS(=O)(=O)c1ccc(Cl)cc1)c1ccc(O)cc1
  0.7, -2.5, -2%, 10, 96*, 4.9, -5
CCN(CC)S(=O)(=O)c1cc(NC(=O)COC(=O)CCC(=O)c2cccs2)ccc1C
  -3.0, -0.9, -4%, -8, -3, -6.6, -1
Cc1[nH]c2c([N+](=O)[O-])cccc2c1C
  -0.9, -5.4, ., -2, 0, -1.1, -3
O=C(COC(=O)c1cc(Cl)nc(Cl)c1)Nc1ccc(Cl)c(S(=O)(=O)N2CCOCC2)c1
  ., 0.0, -11%, ., 2, 0.9, 16
O=C(COC(=O)c1cccs1)Nc1ccccc1
  ?, -2.0, -5%, -58, -4, -2.9, 4
CCCn1nnc(NC(=O)c2cc(Br)ccc2OC)n1
  -1.7, 4.3, -2%, 20, 1, 0.6, -9
Cc1ccc(F)cc1NC(=O)N1CCCN(C(=O)OC(C)(C)C)CC1
  -0.6, -0.5, ?, 16, -7, -3.1, 3
CC1CCN(C(=O)c2ccc3c(Cl)c4c(nc3c2)CCCC4)CC1
  10.0, -2.4, 3%, 31, 7, -3.1, -5
COc1ccc(CNc2oc(-c3cccc4ccccc34)nc2C#N)cc1
  -1.8, 1.9, ?, -10, -5, -1.5, 4
COc1ccc(-c2cc(C(=O)OCC(=O)N(C)C)c3ccccc3n2)cc1
  -1.9, -1.4, 6%, -3, -8, -2.2, 2
N#Cc1ccc(OCC(=O)Nc2nc(-c3cccnc3)cs2)cc1
  ., -1.6, -13%, ., -8, 8.7, -7
CCOC(=O)C1=C(COC(=O)CCOc2ccc(C)cc2)NC(=O)NC1C (centres undefined)
  -3.4, 3.3, -1%, -5, 19, -5.2, 0
O=C(CSc1nnc(CNc2ccc(F)cc2)o1)N1CCCc2ccccc21
  -2.5, 4.7, 12%, 6, 19, -3.0, 1
COc1cc(NC(=O)COC(=O)CO/N=C(\C)c2ccc3c(c2)OCO3)cc(OC)c1
  ., -3.3, -1%, ., -7, i, 3
CC(=O)Nc1ccc(NC(=O)CSc2nccn2Cc2ccccc2)cc1
  -0.5, 2.5, -1%, 0, -4, -1.6, -19
Cc1cc(C)c(S(=O)(=O)NCC(c2cccnc2)N2CCN(Cc3ccccc3)CC2)c(C)c1 (centres undefined)
  0.2, -1.7, ., 13, 6, 1.8, 2
CCOc1ccc(NC(=S)N(CCN2CCOCC2)Cc2cc3cc4c(cc3[nH]c2=O)OCCO4)cc1
  -11, 3.4, ., -10, -31, 5.0, -1
